# Vaccinia stage = Vaccinia orthopox stage-specific inhibition; Vaccinia-infected cells, mCherry/Venus stage reporter fluorescence; hits give low values; some inactives read as strong as hits; activity change (mCherry), % (concentration not given with the values); 89,000 tested, 0.01% active;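 active = mCherry past -33% and 40 or more points under the early reporter, replicates agreeing; inconclusive = past -33% without that gap or agreement; tested in A549 cells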;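 also: scaled between vehicle wells and reference inhibitor wells; 23 nL library stock went into each well; one replicate is shown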
# Vaccinia stage Venus = recorded beside Vaccinia stage, whose call it bears; activity change (Venus), %; measured here: Venus reporter, other viral stage;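 negative = less Venus signal; first of two replicates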
# * hit, by the source's call; ? = inconclusive; / = not tested or not shown. A portion of the library; rates above refer to the full screens.
SMILES,Vaccinia stage,Vaccinia stage Venus
CCCN(C)C[C@@H]1Oc2ncc(Br)cc2C(=O)N([C@@H](C)CO)C[C@H]1C,6.8,10.0
C[C@@H]1CN([C@H](C)CO)C(=O)c2cc(NC(=O)Cc3ccccc3)ccc2O[C@@H](C)CCCCO[C@H]1CN(C)C(=O)CCC(F)(F)F,-21.0,-14.9
CCC(=O)N(C)C[C@H]1Oc2cc(C#CC3CCCCC3)ccc2S(=O)(=O)N([C@@H](C)CO)C[C@H]1C,-31.3,-24.5
CO[C@@H]1CN(C)C(=O)c2cc(NC(=O)C3CC3)ccc2OC[C@@H](C)N(C(=O)c2ccccc2F)C[C@H]1C,8.8,-0.1
COCC(=O)Nc1ccc2c(c1)[C@H]1C[C@H](CC(=O)NCc3cccnc3)O[C@H](CO)[C@H]1O2,6.1,14.9
COCc1cn(CC[C@@H]2CC[C@@H](NC(=O)Cc3cccnc3)[C@@H](CO)O2)nn1,14.9,24.6
CNC[C@H]1Oc2cc(-c3cccc(C(=O)N(C)C)c3)ccc2S(=O)(=O)N([C@H](C)CO)C[C@@H]1C,1.6,3.6
COc1cccc(-c2ccc([C@H]3[C@H](CO)N(C(=O)C4CC4)C34CN(C(C)=O)C4)cc2)c1,14.6,20.7
O=C(C[C@@H]1CC[C@@H](NC(=O)Nc2ccccc2F)[C@@H](CO)O1)NCc1ccc(Cl)cc1,-6.2,-2.9
Cn1cnc(S(=O)(=O)N2CCCCN3[C@H](C2)[C@H](c2ccc(-c4ccccc4F)cc2)[C@@H]3CO)c1,?,/
C[C@@H]1CN([C@@H](C)CO)C(=O)c2cccc(NC(=O)c3cnccn3)c2O[C@H]1CN(C)CC1CCCCC1,7.5,2.4
Cc1ccc(S(=O)(=O)Nc2ccc3c(c2)C(=O)N([C@H](C)CO)C[C@H](C)[C@@H](CN(C)C)OCCCC[C@@H](C)O3)cc1,-7.2,4.5
O=C(C[C@H]1CC[C@H](NC(=O)c2cccnc2)[C@@H](CO)O1)NCCN1CCCCC1,4.1,3.6
CCC(=O)N1CC[C@H]2[C@H](CO)Nc3ccc(-c4ccc(F)cc4)cc3[C@H]21,-1.1,-10.2
Cc1noc(C)c1NC(=O)Nc1ccc2c(c1)C(=O)N([C@@H](C)CO)C[C@@H](C)[C@@H](CN(C)C(=O)Nc1c(C)noc1C)O2,10.2,5.6
O=C(C[C@H]1CC[C@H]2[C@@H](COC[C@H](O)CN2C(=O)Nc2ccc(Cl)cc2)O1)NCCc1ccncc1,-29.2,-19.8
C[C@@H]1CCCCO[C@@H](CN(C)C(=O)C2CCCCC2)[C@H](C)CN([C@H](C)CO)C(=O)c2cc(NS(=O)(=O)c3ccccc3)ccc2O1,?,/
C[C@@H]1CCCCO[C@@H](CN(C)Cc2ccc(Cl)c(Cl)c2)[C@@H](C)CN([C@@H](C)CO)C(=O)c2cc(NC(=O)Nc3ccc(F)cc3)ccc2O1,4.4,3.8
CO[C@H]1CN(C)C(=O)c2cc(NC(=O)NC(C)C)ccc2OC[C@H](C)N(CC2CC2)C[C@@H]1C,1.7,8.1
CC(C)C#Cc1cnc2c(c1)C(=O)N([C@H](C)CO)C[C@H](C)[C@H](CN(C)C(=O)Nc1ccccc1F)O2,2.4,9.0

# Two compounds drawn at random from those above, as already listed:
SMILES,Vaccinia stage,Vaccinia stage Venus
Cn1cnc(S(=O)(=O)N2CCCCN3[C@H](C2)[C@H](c2ccc(-c4ccccc4F)cc2)[C@@H]3CO)c1,?,/
C[C@@H]1CN([C@@H](C)CO)C(=O)c2cccc(NC(=O)c3cnccn3)c2O[C@H]1CN(C)CC1CCCCC1,7.5,2.4

# New compounds follow:
SMILES,Vaccinia stage,Vaccinia stage Venus
O=C(NCC[C@@H]1CC[C@@H](NS(=O)(=O)c2ccc(Cl)cc2)[C@H](CO)O1)Nc1ccc(F)cc1,-2.0,-1.4
COc1ccccc1NC(=O)N1CCCCN2[C@H](C1)[C@H](c1ccc(C#Cc3ccccc3)cc1)[C@@H]2CO,-19.9,-19.6
Cc1ccc(S(=O)(=O)N(C)C[C@@H]2Oc3ccc(NC(=O)Nc4cccc5ccccc45)cc3CC(=O)N([C@@H](C)CO)C[C@@H]2C)cc1,-33.1,-37.8
C[C@H]1CN([C@@H](C)CO)C(=O)c2cc(C#Cc3ccncc3)cnc2O[C@@H]1CN(C)C(=O)CN(C)C,13.3,10.8
CC=Cc1ccc2n(c1=O)C[C@H]1[C@H](CO)[C@@H](C(=O)N(C)C)[C@@H]2N1S(=O)(=O)c1ccccc1C (mixture of isomers),13.4,-1.2
Cc1noc(C)c1S(=O)(=O)Nc1ccc2c(c1)C(=O)N([C@H](C)CO)C[C@@H](C)[C@@H](CN(C)S(=O)(=O)c1ccc(F)cc1)OCCCC[C@H](C)O2,?,/
C[C@@H]1CCCCO[C@@H](CN(C)Cc2ccccc2)[C@@H](C)CN([C@H](C)CO)C(=O)c2cc(NC(=O)c3ccncc3)ccc2O1,-1.6,-9.2
CS(=O)(=O)N1[C@H](CO)[C@@H](c2ccccc2)C12CN(C(=O)c1ccccc1F)C2,2.9,10.0
C[C@H]1CN([C@@H](C)CO)S(=O)(=O)c2ccc(C#CC3(O)CCCC3)cc2O[C@H]1CN(C)C(=O)Cc1ccncc1,2.7,9.9
O=C(C1CCCCC1)N1CC2(C1)[C@@H](c1ccccc1)[C@@H](CO)N2CC1CCCC1,?,/
CN1[C@H](C(=O)Nc2nccs2)[C@@H](CO)[C@@H]2Cn3c(ccc(/C=C/c4ccccc4)c3=O)[C@@H]21,-11.2,-4.2
CO[C@H]1CN(C)C(=O)c2cc(NC(=O)NC(C)C)ccc2OC[C@@H](C)N(C)C[C@@H]1C,-2.6,-4.3
C[C@@H]1CCCCO[C@@H](CN(C)C(=O)CCC(F)(F)F)[C@@H](C)CN([C@@H](C)CO)C(=O)c2cc(NC(=O)Nc3ccccc3)ccc2O1,12.7,10.0
C[C@H](CO)N1C[C@H](C)[C@H](CN(C)C(=O)c2cccnc2)Oc2cc(C3=CCCC3)ccc2S1(=O)=O,29.1,23.6
C[C@H](CO)N1C[C@H](C)[C@@H](CN(C)Cc2ccncc2)Oc2ccc(NC(=O)CCN3CCOCC3)cc2CC1=O,8.0,3.0
C[C@@H]1CN([C@@H](C)CO)C(=O)c2cc(NC(=O)C3CC3)ccc2O[C@H]1CN(C)C(=O)Nc1ccc2c(c1)OCO2,22.7,17.9
O=C(CC1CC1)N1CC(=O)N2[C@H](CO)[C@@H](c3ccc(/C=C/c4ccccc4)cc3)[C@@H]2C1,-33.3,-23.0
C[C@@H](O)C#Cc1ccc2c(c1)O[C@H](CN(C)C(=O)C1CCCCC1)[C@@H](C)CN([C@@H](C)CO)S2(=O)=O,-9.7,4.1
C[C@H](CO)N1C[C@H](C)[C@H](CN(C)Cc2ccc3c(c2)OCO3)Oc2c(NC(=O)Nc3ccc(F)cc3)cccc2C1=O,?,/
C[C@H]1CN([C@@H](C)CO)C(=O)c2cc(NS(=O)(=O)c3cccs3)ccc2O[C@@H]1CN(C)C(=O)Nc1ccc(C(F)(F)F)cc1,14.9,5.2
COc1cccc(-c2ccc3c(c2)O[C@@H](CN(C)C(=O)C2CC2)[C@@H](C)CN([C@H](C)CO)S3(=O)=O)c1,-5.0,1.3
C[C@H](CO)N1C[C@H](C)[C@@H](CN(C)C(=O)c2ccncc2)Oc2cc(C3=CCCC3)ccc2S1(=O)=O,-1.8,-1.7
COc1ccc(-c2cn(CC[C@H]3CC[C@@H](NC(=O)c4cnccn4)[C@@H](CO)O3)nn2)cc1,7.3,4.9
COc1ccc(-c2ccc([C@@H]3[C@H]4CN(C(=O)C5CCOCC5)CC(=O)N4[C@H]3CO)cc2)cc1,0.2,7.3
CCC(=O)N1CC[C@H]2[C@@H]1c1cc(-c3ccccc3)ccc1N(C)[C@H]2CO,1.2,-10.6
O=C(c1ccc(F)cc1)N1CC(=O)N2[C@H](C1)[C@@H](c1ccc(C#Cc3ccc(F)cc3)cc1)[C@@H]2CO,10.3,8.2
O=C(N[C@H]1CC[C@H](CCn2cc(C3(O)CCCC3)nn2)O[C@H]1CO)C1CC1,0.9,0.1
CO[C@@H]1CN(C)C(=O)c2cc(NS(C)(=O)=O)ccc2OC[C@@H](C)N(Cc2ccccc2)C[C@@H]1C,-4.0,1.4
N#C[C@@H]1[C@H](c2ccc(C3=CCCCC3)cc2)[C@H](CO)N1C(=O)c1cccc(F)c1,?,/
COc1ccc(S(=O)(=O)Nc2ccc3c(c2)CC(=O)N([C@@H](C)CO)C[C@@H](C)[C@H](CN(C)Cc2ccc(C(F)(F)F)cc2)O3)cc1,?,/
COc1ccc(S(=O)(=O)Nc2ccc3c(c2)CC(=O)N([C@H](C)CO)C[C@H](C)[C@H](CN(C)C(=O)Nc2c(C)noc2C)O3)cc1,8.1,-1.2
C[C@@H]1CCCCO[C@@H](CN(C)C(=O)NC2CCCCC2)[C@@H](C)CN([C@H](C)CO)C(=O)c2cc(NC(=O)Nc3ccc(F)cc3)ccc2O1,22.0,13.4
C[C@@H]1CN([C@H](C)CO)C(=O)CCCn2cc(nn2)CO[C@@H]1CN(C)Cc1ccc(O)cc1,4.0,3.0
COc1ccc(NC(=O)N(C)C[C@@H]2Oc3ccc(NS(=O)(=O)c4ccc(Cl)cc4)cc3CC(=O)N([C@H](C)CO)C[C@@H]2C)cc1,12.3,10.0
O=C(C[C@H]1C=C[C@H](NC(=O)c2cccnc2)[C@@H](CO)O1)NCc1ccc(Cl)c(Cl)c1,2.4,-2.4
C[C@@H]1CN([C@H](C)CO)C(=O)c2c(c3ccccc3n2C)-c2ccccc2CO[C@@H]1CN(C)S(=O)(=O)c1cccc(F)c1,?,/
COCC(=O)N1CC2(CN(Cc3ccccc3)C2)c2c([nH]c3cc(OC)ccc23)[C@H]1CO,1.2,-8.9
O=C(C[C@H]1CC[C@H]2[C@@H](COC[C@H](O)CN2Cc2nccs2)O1)NCc1ccccc1F,8.2,10.2
Cc1noc(C)c1NC(=O)N[C@H]1CC[C@H](CCNC(=O)C2CCC2)O[C@H]1CO,2.7,8.6
C[C@H](CO)N1C[C@H](C)[C@@H](CN(C)C(=O)Nc2cccc3ccccc23)Oc2ccc(NS(=O)(=O)c3ccc(Cl)cc3)cc2C1=O,30.8,12.7

# Record cards (already shown).
# `COc1ccc(S(=O)(=O)Nc2ccc3c(c2)CC(=O)N([C@H](C)CO)C[C@H](C)[C@H](CN(C)C(=O)Nc2c(C)noc2C)O3)cc1` reads Vaccinia stage = 8.1; Vaccinia stage Venus = -1.2
# `C[C@H](CO)N1C[C@H](C)[C@@H](CN(C)C(=O)Nc2cccc3ccccc23)Oc2ccc(NS(=O)(=O)c3ccc(Cl)cc3)cc2C1=O` reads Vaccinia stage = 30.8; Vaccinia stage Venus = 12.7

# (cont.)
SMILES,Vaccinia stage,Vaccinia stage Venus
CN1CCN(C(=O)C[C@@H]2C=C[C@H](NS(=O)(=O)c3cccc(F)c3)[C@H](CO)O2)CC1,3.0,5.0
CCCC#Cc1ccc2c(c1)O[C@@H](CN(C)S(=O)(=O)c1cccc(OC)c1)[C@@H](C)CN([C@@H](C)CO)S2(=O)=O,?,/
C[C@H](CO)N1C[C@H](C)[C@@H](CN(C)C(=O)Nc2ccccc2)Oc2ccc(NC(=O)C3CC3)cc2C1=O,20.1,12.0
COc1ccc(NC(=O)N2CC(=O)N3[C@@H](CO)[C@H](c4ccc(Br)cc4)[C@@H]3C2)cc1,1.5,4.5
O=C(N[C@H]1CC[C@H](CCNC(=O)c2ccccc2F)O[C@H]1CO)c1ccc2c(c1)OCO2,-2.1,0.0
CCCC(O)C#Cc1cnc2c(c1)C(=O)N([C@H](C)CO)C[C@H](C)[C@H](CN(C)Cc1cccc(C)c1)O2 (stereo partly drawn),-9.4,-15.8
COc1ccc([Si](C)(C)[C@@H]2[C@@H](CC(=O)N(CCO)Cc3ccccc3)O[C@]3(C(=O)N(C)c4ccccc43)[C@H]2C)cc1,?,/
Cc1noc(C)c1NC(=O)N(C)C[C@@H]1Oc2ncc(C#CC3CC3)cc2C(=O)N([C@H](C)CO)C[C@H]1C,7.7,-4.5
O=C(C[C@@H]1C=C[C@@H](NC(=O)c2ccc3c(c2)OCO3)[C@@H](CO)O1)NC1Cc2ccccc2C1,7.8,15.5
COc1ccc(CN(C)C[C@@H]2Oc3ccc(NC(=O)CCCCCC(=O)Nc4ccccc4N)cc3CC(=O)N([C@@H](C)CO)C[C@@H]2C)cc1,-4.9,-6.8
O=C(C[C@@H]1C=C[C@H](NC(=O)c2ccncc2)[C@@H](CO)O1)Nc1ccc(-c2ccccc2)cc1,-13.3,-4.6
CC(=O)N1[C@@H]2Cn3c(ccc(/C=C/c4ccccc4)c3=O)[C@H]1[C@@H](C(=O)N1CCOCC1)[C@@H]2CO,12.0,0.9
CNC[C@H]1OCCCC[C@@H](C)Oc2ccc(NC(=O)Nc3ccc(OC)cc3)cc2C(=O)N([C@@H](C)CO)C[C@@H]1C,-6.2,4.8
CCC(=O)Nc1ccc2c(c1)OC[C@@H](C)N(C(=O)NC(C)C)C[C@H](C)[C@H](OC)CN(C)C2=O,-3.9,0.6
C[C@@H]1CN([C@H](C)CO)S(=O)(=O)c2ccc(-c3ccc(C(=O)N(C)C)cc3)cc2O[C@H]1CN(C)C(=O)Nc1ccccc1F,3.6,-1.6
C[C@@H](NC(=O)C[C@@H]1CC[C@@H]2[C@H](COC[C@H](O)CN2C(=O)Nc2cc(Cl)cc(Cl)c2)O1)c1ccccc1,?,/

# An excerpt of these results, with bars between the fields:
Molecule | Vaccinia stage | Vaccinia stage Venus
O=C(C1CCCCC1)N1CC2(C1)[C@@H](c1ccccc1)[C@@H](CO)N2CC1CCCC1 | ? | /
CO[C@@H]1CN(C)C(=O)c2cc(NC(=O)C3CC3)ccc2OC[C@@H](C)N(C(=O)c2ccccc2F)C[C@H]1C | 8.8 | -0.1

# Another view of 2 compounds above.
canonical_smiles | Vaccinia stage | Vaccinia stage Venus
Cc1noc(C)c1NC(=O)N(C)C[C@@H]1Oc2ncc(C#CC3CC3)cc2C(=O)N([C@H](C)CO)C[C@H]1C | 7.7 | -4.5
O=C(C[C@@H]1C=C[C@@H](NC(=O)c2ccc3c(c2)OCO3)[C@@H](CO)O1)NC1Cc2ccccc2C1 | 7.8 | 15.5
